# UUG fidelity – modulators of yeast start codon fidelity, primary screen, whole organism, S. cerevisiae, single point, plate reader | S. cerevisiae UUG-firefly luciferase reporter, luminescence/redox ratio | activity score, % at 18.7 µM | actives 0.13% (n = 350,000) | AID 602363, 2012;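 active = replicate mean at a twofold rise or more, about +100% in these data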;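 note: firefly luciferase made from a UUG start codon reports start codon fidelity; reporter light over untreated wells divided by growth signal over untreated wells; some hits fall short of that in this replicate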
# eIF4H inh – human eIF4H binding inhibitors, primary screen, translation initiation inhibitor project, biochemical, uHTS, fluorescence polarization; Eukaryotic translation initiation factor 4H (Homo sapiens), Q15056; eIF4H fluorescence polarization binding assay; inhibition, % at 35 µM; actives 0.94% (n = 290,000);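 active = 50% or more with normal probe brightness, or confirmed in later tests; inconclusive = above 50% with abnormal brightness, or retests that disagree; inactive = below 50% or failed in later tests; about a fifth of its hits are not listed in these tables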;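 note: calls also rest on retests at 20 µM and on dose response follow-up; 0% = protein and probe with vehicle and 100% = probe without protein; strong numbers were not always called active; many hits fall short of the cut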
# Rce1 inhib – yeast Rce1p protease inhibitors, primary screen, biochemical, fluorescence, cell-free homogeneous; CAAX prenyl protease 2 (Saccharomyces cerevisiae (strain ATCC 204508 / S288c)), Q03530; yeast membranes, quenched prenylated peptide cleavage fluorescence; calls only; actives 0.27% (n = 290,000);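 active = fall in fluorescence gain of 50% or more versus controls, with final raw signal at or below 3038400; inconclusive = same 50% fall but final raw signal above 3038400; inactive = fall in fluorescence gain under 50%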;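 note: plate controls were neutral control wells for no effect and wells lacking membranes for full effect; tested at 10 µM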
# Target sequence (Q03530 whole entry, looked up): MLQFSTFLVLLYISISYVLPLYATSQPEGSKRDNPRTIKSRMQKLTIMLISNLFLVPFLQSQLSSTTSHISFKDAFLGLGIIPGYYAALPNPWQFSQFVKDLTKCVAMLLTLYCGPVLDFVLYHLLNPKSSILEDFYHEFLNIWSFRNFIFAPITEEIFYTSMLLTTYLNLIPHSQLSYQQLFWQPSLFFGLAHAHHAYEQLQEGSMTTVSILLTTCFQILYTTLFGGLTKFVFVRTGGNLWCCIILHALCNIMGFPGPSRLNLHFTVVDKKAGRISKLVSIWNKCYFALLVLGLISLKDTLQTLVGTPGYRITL
# HIV Env fusion – inhibitors of HIV-1 Env-driven cell-cell fusion, primary screen, HeLa-JRFL effector, CEM21 target cells, luciferase | actives 1.1% (n = 360,000) | inhibition, % at 12.3 µM;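 active = mean replicate inhibition score of at least 50 and every replicate individually at or above 50; inconclusive = only one of the two criteria met; inactive = mean below 50 and not all replicates reaching 50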;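 note: 0% = plate neutral controls and 100% = maraviroc near 300 nM; one replicate is shown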
# CSC inhib – cancer stem cell viability inhibitors, primary screen, luminescence | cancer stem cell-like cells viability | inhibition, % at 7.5 µM | actives 1.1% (n = 300,000) | AID 2717, 2010;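 active = mean at 75% or more and at least half the replicates too; inconclusive = mean and replicates disagree; tested in HMLE shEcad cells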;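 note: 0% = median of negative and 100% = median of positive control wells; the first replicate is given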
# PABP polyA inh – PABP poly(A) RNA binding inhibitors, primary screen, biochemical, fluorescence polarization, uHTS; actives 1% (n = 290,000); inhibition, % at 35 µM; Polyadenylate-binding protein 1 (Homo sapiens), P11940;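 active = 50% or more with normal probe brightness, or confirmed in later tests; inconclusive = above 50% with abnormal brightness, or retests that disagree; inactive = below 50% or failed in later tests; about a fifth of its hits are not listed in these tables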;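 note: calls also rest on retests at 20 µM and on dose response follow-up; controls were probe without protein and protein plus probe with vehicle; some compounds called inactive have numbers as strong as hits; many hits fall short of the cut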
# MT1-MMP act inh – blockers of MT1-MMP proenzyme processing, primary screen, HT1080 RFP-PRO-GFP cells, GFP/RFP fluorescence. GFP/RFP ratio fluorescence, overnight; percent of plate control window, DMSO zero. actives 0.061% (n = 360,000). GFP/RFP ratio change, % at 20 µM;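 active = GFP/RFP ratio change of at least 30% with cell ATP level not reduced by more than half and red fluorescence within 50% of control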; note: strong numbers were not always called active
#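 Compound: 20 µM single dose, 1% DMSO / System: HT1080 RFP-PRO-GFP cells / Controls: DMSO and RFP-L50D-GFP cell wells / Read-out basis: GFP/RFP fluorescence ratio / Schedule: overnight compound exposure at 37 °C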
# eIF4H inh retest – further read-out of eIF4H inh, marked with its call; inhibition, %; compound at 20 µM; confirmation average;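 mean of two retest wells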
# PABP polyA inh retest – recorded beside PABP polyA inh, whose call it bears; inhibition, %; compound at 20 µM; confirmation repeats;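 mean of two retest wells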
# MT1-MMP act inh RFP – second read-out of MT1-MMP act inh, no call of its own (marks repeat the call); RFP signal change, %; measured here: RFP expression control read;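 0 = vehicle wells; hits needed this value within 50% of zero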
# Numbers without * were called inactive; i = inactive; ? = inconclusive; . = no result given; + = active, no number; & = joins results of further samples. An excerpt; rates above refer to the full screens.
SMILES,UUG fidelity,eIF4H inh,Rce1 inhib,HIV Env fusion,CSC inhib,PABP polyA inh,MT1-MMP act inh,MT1-MMP act inh RFP,others
CCn1ccnc1CNC(=O)CC1C(=O)NCCN1CC(c1ccccc1)c1ccccc1 (stereo not given),.,16.9,i,-1.6,-5.2,16.0,-5.6,2.7,
COc1ccc(CN2CCC(C(=O)N3CCN(c4ccccc4F)CC3)CC2)cc1OC,-13.2,4.4,i,37.8,2.2,6.2,7.0,10.1,
COc1cc(/C=N/Nc2ncnc3sc4c(c23)CCC4)ccc1O,-24.5,-2.2,.,29.4,.,0.2,-3.8,-2.0,
Cc1ccc(C2(c3noc(CN4CCC(C(=O)N5CCOCC5)CC4)n3)CCCC2)cc1,.,-0.7,i,2.7,-13.9,3.0,-1.0,-1.1,
Cc1oc2c(c(C)cc3oc(=O)c(CC(=O)NCCCN4CCCC4=O)c(C)c32)c1C,-24.3,-9.2,i,.,0.9,0.4,3.8,0.3,
COc1ccc(CNC(=O)c2ccc3oc(C(C)C)nc3c2)cc1,-4.7,-1.7,i,-72.1,30.3,-4.0,2.2,0.7,
COc1ccc(OC)c(S(=O)(=O)NCC(=O)NC2CCCc3ccccc32)c1 (stereo not given),-7.1,.,.,-21.8,.,.,0.8,3.8,
O=C(CN1CCC(NC(=O)c2cccc(F)c2)CC1)Nc1ccc(Br)cc1,6.2,-1.6,i,37.9,.,-4.9,5.8,-2.7,
CCc1ccc(N2CC(C(=O)NCCC3=CCCCC3)CC2=O)cc1 (stereo not given),-5.2,-7.9,i,2.2,.,-12.1,-1.0,2.6,
COc1cc2c(cc1OC)CN(C(=O)c1ccc3[nH]c(C)c(C)c3c1)CC2,-6.2,-1.0,i,.,5.2,6.5,-4.6,-4.1,
COc1ccc(/C=C2\CCC(C3CCCC3)C2=O)cc1Cn1nc(C)cc1C (stereo not given),.,-9.4,i,-29.0,6.3,-1.9,-3.6,-8.7,
O=C1CNC(=S)N1CCc1ccccc1Cl,-18.1,-2.4,i,-301.7,-9.1,-0.3,-3.6,4.2,
COC(=O)c1cc(S(=O)(=O)NCCCN2CCCC2=O)cn1C,.,-6.5,i,13.8,-6.2,-1.0,0.0,3.4,
CCC1CCC(C(=O)NC(CCSC)C(=O)NCCc2ccc(S(N)(=O)=O)cc2)CC1 (stereo not given),2.3,-0.6,i,3.2,-8.4,3.5,2.0,-2.2,
COC(=O)c1cn(NC(=O)c2cccnc2)c(=O)c2ccccc12,-22.1,-1.1,i,-23.4,-15.1,1.5,1.4,6.2,

# Grouped by structure, the compounds so far containing fluorine (two)
SMILES,UUG fidelity,eIF4H inh,Rce1 inhib,HIV Env fusion,CSC inhib,PABP polyA inh,MT1-MMP act inh,MT1-MMP act inh RFP,others
COc1ccc(CN2CCC(C(=O)N3CCN(c4ccccc4F)CC3)CC2)cc1OC,-13.2,4.4,i,37.8,2.2,6.2,7.0,10.1,
O=C(CN1CCC(NC(=O)c2cccc(F)c2)CC1)Nc1ccc(Br)cc1,6.2,-1.6,i,37.9,.,-4.9,5.8,-2.7,

# Entries above that contain a halogen, in the order listed:
SMILES,UUG fidelity,eIF4H inh,Rce1 inhib,HIV Env fusion,CSC inhib,PABP polyA inh,MT1-MMP act inh,MT1-MMP act inh RFP,others
COc1ccc(CN2CCC(C(=O)N3CCN(c4ccccc4F)CC3)CC2)cc1OC,-13.2,4.4,i,37.8,2.2,6.2,7.0,10.1,
O=C(CN1CCC(NC(=O)c2cccc(F)c2)CC1)Nc1ccc(Br)cc1,6.2,-1.6,i,37.9,.,-4.9,5.8,-2.7,
O=C1CNC(=S)N1CCc1ccccc1Cl,-18.1,-2.4,i,-301.7,-9.1,-0.3,-3.6,4.2,

# Next results.
SMILES,UUG fidelity,eIF4H inh,Rce1 inhib,HIV Env fusion,CSC inhib,PABP polyA inh,MT1-MMP act inh,MT1-MMP act inh RFP,others
Cc1ccc(-c2csc(NC(=O)c3ccc4c(=O)n5c(nc4c3)CCCCC5)n2)cc1,3.2,-9.1,i,27.4,47.7,-9.8,-0.1,-19.7,
O=C(c1ccc([N+](=O)[O-])cc1[N+](=O)[O-])N1CCc2ccccc21,-9.4,-2.5,i,7.4,24.7,-3.9,2.2,3.2,
Cc1nn(C)cc1/C=C(/C#N)C(N)=O,.,-1.7,i,-13.1,8.0,-1.2,0.0,0.6,
CCC(C)NCC(O)COCc1ccc(Cl)cc1 (stereo not given),-8.7,-9.8,i,.,-7.5,-1.5,2.0,2.8,
NS(=O)(=O)c1ccc(NCC2COc3ccccc3O2)c([N+](=O)[O-])c1 (stereo not given),.,-0.6,i,-63.5,0.4,0.2,5.1,-0.3,
CC1CCN(C(=O)Cn2cc(C(=O)c3ccco3)c3ccccc32)CC1,3.3,2.7,i,-92.8,-27.9,-9.2,-4.8,-2.0,
CN1CCN(C(=O)/C=C/c2ccc([N+](=O)[O-])o2)CC1,-11.4,108.3,i,-102.2,.,80.2,-2.2,-2.2,eIF4H inh retest=18.9;PABP polyA inh retest=27.3
O=C(O)c1ccc(S(=O)(=O)NCc2cccnc2)cc1,-15.9,-6.0,i,-3.0,-2.3,-8.2,-3.6,0.6,
O=c1nc(-c2ccccc2)cc(C(F)(F)F)[nH]1,-12.9,-4.9,i,.,-2.4,-4.5,0.0,1.7,
Cc1cccc(N(CC(=O)NC(C)(C)C)C(=O)CS(=O)CC(=O)Nc2ccc(F)cc2)c1 (stereo not given),.,-6.6,i,-2.5,0.0,-1.5,2.2,2.5,
O=C1c2ccccc2NC(c2ccc(O)c(O)c2)N1c1ccccc1Cl (stereo not given),-6.8,-15.4,i,-15.4,-15.7,-14.4,-0.2,0.6,
COc1ccc(CC(=O)NCC2CCCN(Cc3ccc(SC)cc3)C2)cc1 (stereo not given),-4.3,1.5,i,-1.1,-3.6,7.4,-1.6,1.0,
COc1ccc(OCC(=O)Nc2ccc3c(c2)OCO3)cc1,-4.9,2.8,i,-0.2,-6.3,-1.4,0.1,3.3,
COCCNc1nc(N)c([N+](=O)[O-])c(N2CCCCCC2)n1,-6.4,-2.8,+,13.7,0.0,6.9,-3.3,-4.6,
Cc1ccc(C(=O)CCC(=O)OCC(=O)N2CCN(S(=O)(=O)c3ccc(C)cc3C)CC2)cc1,-12.1,.,.,1.5,.,.,-1.0,1.4,
CCn1c(CCl)nc2cc(S(=O)(=O)N3CCOCC3)ccc21,-17.8,.,.,39.0,-2.5,.,-1.3,0.3,
COc1ccc(C(O)(CCC(C)C)C(CN2CCOCC2)c2ccc(Cl)cc2)cc1 (stereo not given),13.3,-6.4,i,?,29.3,14.4,-19.7,-15.2,
N#C/C(=C\c1c[nH]c2ccccc12)c1nnc2n1CCCCC2,-15.1,6.6,i,-173.9,-12.5,-0.8,9.3,4.2,
O=S(=O)(c1ccccc1)c1nc(-c2ccccc2)oc1N1CCOCC1,.,-3.0,i,11.9,-2.4,11.4,1.6,-1.8,
S=C1NC2CCCCC2N1 (stereo not given),.,-0.4,i,1.9,-4.2,20.8,1.7,7.8,
CC(C)Oc1ccc(S(=O)(=O)N2CCCCC2)cc1NC(=O)CC1OC(=O)c2ccccc21 (stereo not given),-11.3,.,.,11.4,-12.3,.,0.7,-1.8,
O=S1(=O)CC(N2CC=CC2)CN1Cc1ccc(F)cc1 (stereo not given),1.7,.,.,-8.5,.,.,4.6,3.8,
CCOC(=O)CN1C(=O)CC(c2ccc([N+](=O)[O-])cc2)C1=O (stereo not given),-2.5,-15.2,i,-8.1,-9.3,-3.3,0.4,3.3,
COc1cccc(NC(=S)Nc2ccc(Br)cc2Cl)c1,-16.2,-0.7,i,-21.0,2.6,2.7,2.3,0.7,
CCCn1c(=O)c2c(nc3n2CC(C)CN3Cc2ccccc2)n(C)c1=O (stereo not given),-9.9,3.1,i,9.2,4.0,-3.9,-1.5,-2.4,
Cc1ccc(NC(=O)CC2C(=O)NCCN2C(=O)c2ccc(F)cc2)cc1 (stereo not given),0.5,-10.6,i,52.5,-11.4,-4.6,-2.2,1.1,
O=C(NCc1ccccn1)c1n[nH]c2ccccc12,-16.7,-4.4,i,-144.7,-2.2,-14.3,4.8,1.5,
Cc1ccc(C)c(N(CC(=O)NC2CCCC2)C(=O)c2oc(C(C)(C)C)cc2C)c1,-3.0,-6.8,i,.,.,2.1,-28.9,-22.2,
COc1ccc(C(=O)Cn2nnc(-c3ccccc3NC(=O)C3CCCCC3)n2)cc1,-9.4,23.0,i,27.6,11.7,62.3*,-7.5,-7.2,eIF4H inh retest=47.4;PABP polyA inh retest=86.4*
C[C@@H]1CN([C@H](C)CO)S(=O)(=O)c2ccc(Br)cc2O[C@H]1CN(C)C(=O)C1CCCCC1,-2.0&4.5&-1.8,.,.,-5.1,.,.,0.0,-0.5,
O=C(O)CC(C(=O)O)n1nc(-c2ccccc2)cc1-c1ccccc1 (stereo not given),3.4,6.1,i,.,3.4,9.0,0.7,5.0,
O=C(CCNC(=O)c1ccccc1)N/N=C/c1ccc([N+](=O)[O-])cc1,.,-2.8,.,-2.8,35.7,4.8,2.3,-2.9,
CCN(CC(=O)Nc1ccccc1C(F)(F)F)C(=O)Cc1cccs1,-7.9,.,.,.,0.2,.,1.7,-0.3,
Cc1ccccc1N=C1Nc2ccccc2N[C@]12C[C@H]1CCC(=O)N3CC[C@@H](C2)[C@@H]13,-11.8,.,.,-27.9,.,.,-0.3,0.5,
Cc1ccccc1C(=O)NNS(=O)(=O)c1ccc(F)cc1,-23.6,.,.,-31.7,.,.,0.4,1.1,
N#Cc1c(NC(=S)NC(=O)Cc2cccs2)sc2c1CCCCC2,-35.7,2.4,i,-6.6,-10.3,7.2,5.1,3.0,
Cc1cc(C)n(CC(=O)NC2CCCCC2C)c(=O)c1C#N (stereo not given),-8.8,.,+,-7.6,-11.9,.,4.9,5.9,
COc1cccc(C(=O)NNC(=O)Cc2csc(N)n2)c1,.,9.4,i,-2.0,1.6,-9.3,-1.1,0.3,
CC(/C=C1\NC(=S)NC1=O)=C\c1ccccc1,-18.9,0.7,i,-3.8,-1.8,3.2,-0.1,-3.7,
O=CN1CCN(c2ncnc3c2nnn3Cc2c(F)cccc2Cl)CC1,.,-0.2,i,3.2,-9.3,0.4,-2.9,-4.1,
Cc1ccc(C)c(NC(=O)CN(C)C(=O)CCN2C(=O)c3ccccc3C2=O)c1,-11.2,-19.2,i,.,-4.8,-12.5,2.3,4.6,
CCCC1C2C(=O)N(c3ccccc3OCC)C(=O)C2ON1c1ccccc1 (stereo not given),-3.5,-9.8,i,-20.5,-3.5,4.7,1.0,2.4,
O=C(/C=C/c1ccc([N+](=O)[O-])cc1)NCCN1C(=O)S/C(=C\c2ccc(F)cc2)C1=O,-11.1,-7.0,i,-12.0,10.2,-5.5,1.6,-1.9,
CC(=O)Nc1cc(C(=O)NCCN2CCN(Cc3ccccc3)CC2)ccc1Sc1ccc(C)cc1,.,-2.3,i,1.9,-2.1,6.7,-0.2,-0.8,

# Screens from PubChem.
